D2 ag: Beta-Arrestin HTS for Positive Allosteric Modulators of the Human D2 Dopamine Receptor: Agonists; DiscoveRx PathHunter D2 beta-arrestin, luminescence, 90 min; 100% = 57 uM dopamine signal; activation, % (concentration not given with the values); hit rate 0.084% among 360,000; AID 624465, 2012; in the data active = activation above about 40%; inconclusive = about 15% to 40%; inactive = below about 15%; further: compound concentration not given in the record; the text of the record calls up to 30% inactive
Target sequence (P14416 whole entry, looked up): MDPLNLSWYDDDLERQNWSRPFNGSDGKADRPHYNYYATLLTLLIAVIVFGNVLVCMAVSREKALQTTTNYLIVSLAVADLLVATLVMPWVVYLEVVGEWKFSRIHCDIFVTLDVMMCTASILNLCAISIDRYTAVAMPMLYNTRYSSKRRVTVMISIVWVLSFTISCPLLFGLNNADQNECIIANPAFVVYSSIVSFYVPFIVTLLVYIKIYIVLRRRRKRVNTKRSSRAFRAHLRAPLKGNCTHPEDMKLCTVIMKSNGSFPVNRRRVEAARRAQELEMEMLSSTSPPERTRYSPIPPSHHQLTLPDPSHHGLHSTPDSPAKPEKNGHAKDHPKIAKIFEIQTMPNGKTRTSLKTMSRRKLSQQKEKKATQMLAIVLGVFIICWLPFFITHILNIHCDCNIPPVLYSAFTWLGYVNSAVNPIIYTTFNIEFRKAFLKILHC
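Agonist mode: compounds alone added to overnight-plated D2 PathHunter cells for 90 min at 37 C, with 57 uM final dopamine (EC100) defining full response. Beta-arrestin recruitment detected by chemiluminescent reagent, read after 1 h at ambient temperature.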
gsp agonist: qHTS for Agonist of gsp, the Etiologic Mutation Responsible for Fibrous Dysplasia/McCune-Albright Syndrome: qHTS; AID 624287, 2012; gsp mutant cells, cAMP HTRF, 30 min; control for the full effect not named in the record; hit rate 0.13% among 340,000; Potency, µM (series often up to 76.9 µM), for the others: top-dose activation (cAMP increase), hits mostly activators; active = well fitted activation curve with a large enough effect; inconclusive = small, poorly fitted or top-dose-only effect, or another doubt; inactive = no such curve, though single readings can be large or run the other way; cell line not stated here;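 further: phosphodiesterase inhibitor Ro 20-1724 added with compounds to block cAMP breakdown; potency means the concentration at half of the fitted maximal effect; nearly all actives have a fitted effect of over 60% in size; about a fifth of the inactives were tested at one dose only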
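Cells stably selected in G418 were plated at 2000/well, grown 16-24 hr, then given compounds in DMSO with the PDE inhibitor […] (300 uM solution added) for 30 min at 37C; cAMP was read by HTRF.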
gsp antag: qHTS for Antagonists of gsp, the Etiologic Mutation Responsible for Fibrous Dysplasia/McCune-Albright Syndrome: qHTS. Potency, µM (titrated, usually from 76.9 µM), without a hit: at the top dose activity change, negative = inhibition, most hits filed as inhibitors. hit rate 0.4% among 340,000. AID 624288, 2012. gsp-mutant cells, cAMP HTRF, 30 min; control for the full effect not named in the record; active = falling curve of any shape with a large fitted effect; inconclusive = falling curve, mostly with a smaller effect; inactive = flat or rising curve; cell line not stated here;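 further: intracellular cAMP measured with PDE inhibitor Ro 20-1724 present during compound exposure; potency means the concentration at half of the fitted maximal effect; on the % scale 0 is the no-effect control and ±100 the full control effect; nearly all actives have a fitted effect of over 65% in size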
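HTRF cAMP measurement after 30 min RT detection following 30 min, 37C compound treatment alongside […] (added as 300 uM solution) in G418-selected cells seeded at 2000/well and grown 16–24 h.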
D2 PAM: Beta-Arrestin HTS for Positive Allosteric Modulators of the Human D2 Dopamine Receptor: Potentiators | AID 624464, 2012 | potentiation, % (concentration not given with the values) | DiscoveRx D2 beta-arrestin cells, luminescence, 90 min; 100% = 57 uM dopamine signal | hit rate 0.23% among 360,000; active = potentiation of 50% or more; inconclusive = 30% to 50%; inactive = 30% or less;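 further: compound concentration not given in the record; tested on top of an EC20 dose of dopamine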
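PathHunter beta-arrestin assay in DiscoveRx D2 cells. Compounds were added with an EC20 of dopamine (50 nM final) for 90 min at 37 deg C. Luminescence was read 1 h after detection reagent, with 57 uM dopamine as the EC100 control.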
CtBP-E1A inh: qHTS Assay for Inhibitors of the CtBP/E1A Interaction; CtBP / adenovirus E1A interaction (AlphaScreen); AlphaScreen GST-E1A/His-CtBP binding, 1536-well; hits give low values; control for the full effect not named in the record; activity change, % (no concentration beside the values); hit rate 0.49% among 340,000; in the data active means activity change below about -65%; inconclusive means about -30% to -65%; inactive means above about -30%; further: on the % scale 0 is the no-effect control and ±100 the full control effect; compound concentration not given in the record
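AlphaScreen with 125 nM GST-E1A and 125 nM His-CtBP (5X stocks) in Tris pH 8.0, 300 mM NaCl, BSA, Tween 20, TCEP. Compounds preincubated 2 h at 37 deg C, then glutathione donor/nickel acceptor beads added for 1 h at 37 deg C in dark.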
Six1-Eya2 blk: qHTS Assay for Inhibitors of the Six1/Eya2 Interaction | Homeobox protein SIX1 (Homo sapiens) + Protein phosphatase EYA2 (Homo sapiens), … | AlphaScreen GST-Six1/His-Eya2 binding, biochemical; hits give low values; control for the full effect not named in the record | activity change, % (concentration not given with the values) | hit rate 0.56% among 360,000 | AID 651725, 2012; in the data active = activity change below about -65%; inconclusive = about -30% to -65%; inactive = above about -30%; further: on the % scale 0 is the no-effect control and ±100 the full control effect
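Compounds are tested against tagged Six1 and Eya2 proteins bridged by glutathione donor and nickel acceptor beads; after a one-hour incubation at 37 °C without light, AlphaScreen emission is recorded.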
* = called active by the depositor; ? = inconclusive; nt = no result given; [ ] = remark or other dose. An unsorted share of the library; 1.4% or so of the library scored in one or more.

Structure | D2 ag | gsp agonist | gsp antag | D2 PAM | CtBP-E1A inh | Six1-Eya2 blk
O=C(CSc1nnc(CNc2ccc(F)cc2)n1Cc1ccccc1)N1CCOCC1 | -4.4 | 23% | 7% | 5 | 5 | -9
CC(=O)Nc1cccc(NC(=O)C2CCCN2C(=O)Nc2ccc(C)cc2)c1 (centres undefined) | -0.8 | -34% | -11% | -9 | -1 | 3
CC(C)(C)OC(=O)N1CCC(CC2CC(c3cccc(Br)c3)=NO2)(C(=O)NCC2CCCCC2)CC1 (centres undefined) | -1.6 | nt | ? | -8 | 2 | -6
COc1cccc(C(=O)NC2=NCCS2)c1OC | -0.3 | -2% | 10% | -2 | 6 | -1
CC1CCN(C(=O)c2cc(S(=O)(=O)N3CCCCC3)c[nH]2)CC1 | -4.3 | 15% | 13% | 4 | 2 | 2
C=CCOc1c(CNn2cn[nH]c2=S)cccc1OC | -5.5 | 4%[15.4 µM] | -6% | -7 | 0 | 13
COc1ccc([C@H]2CC(=O)C=C(c3ccc(SC)cc3)C2)cc1OC | -2.7 | -28% | -4% | -5 | 7 | 0
Cc1ccc(S(=O)(=O)N2CCN(CC(=O)Nc3ccc4c(c3)CCC4)CC2)cc1C | -2.8 | -18% | -33% | -22 | 24 | 20
CNC[C@H]1Oc2c(NS(=O)(=O)c3ccccc3)cccc2C(=O)N([C@H](C)CO)C[C@@H]1C | -1.6 | nt | -2% | -5 | 3 | 5
CCO[C@H]1c2c(ccc3ccc(=O)oc23)OC(C)(C)[C@@H]1O | 0.4 | nt | 3% | -2 | 0 | 0
CCCCCn1c(SCC2CCCO2)nc2cc(C(=O)N3CCC(C(N)=O)CC3)ccc2c1=O (centres undefined) | -1.7 | -59%[inhibitor] | -15% | -6 | 11 | -1
COc1ccc2c(c1)OC[C@H]1[C@H]2N2C(=O)c3cc(OC)ccc3NC(=O)[C@@]2(C)[C@H]1c1ccccc1 | -3.1 | nt | -6% | -59 | -1 | -9
COc1ccc(S(=O)(=O)N2CCC(c3nc4ccccc4[nH]3)CC2)cc1 | 3.1 | -24% | -6% | -3 | -1 | -7
COc1cc2c(cc1NC(=O)c1ccc(C(C)(C)C)cc1)CCCC2 | -2.7 | -11% | -16% | -17 | 7 | 0
Cc1cccn2cc(-c3cccc(S(=O)(=O)N4CC(C)OC(C)C4)c3)nc12 (centres undefined) | 0.8 | -12% | -4% | 0 | nt | 14
Cc1cc(OCCCC(=O)Nc2cccc(-n3cnnn3)c2)ccc1Cl | -3.9 | -108%[inhibitor] | ? | -10 | nt | 2
O=C(O)c1ccc(OCc2ccc(C(=O)O)o2)cc1 | -3.2 | 29% | 11% | -3 | 4 | -6
Cc1cc(C)c2[nH]c(=O)c(CN(Cc3ccccc3)C(=S)NCCCN(C)C)cc2c1 | -1.6 | 20% | 6% | -16 | -5 | 0
Cc1cccc(-n2ncc3c(N(C)Cc4ccccc4)ncnc32)c1 | -0.7 | -6% | -12% | -2 | -5 | 18
N#Cc1ccc(-c2ccc(OCC(O)Cn3nnc4ccccc43)cc2)cc1 (centres undefined) | 0.0 | -5% | 32µM* | 21 | 0 | -5
CCCCn1c(N)c(N(CC(C)C)C(=O)c2ccc(COc3ccccc3)o2)c(=O)[nH]c1=O | 2.2 | -24% | -6% | -12 | -2 | 2
COc1ccc2[nH]c(=O)c(-c3nnn(-c4ccc(F)cc4)n3)cc2c1 | -4.1 | nt | -13% | -45 | -1 | 0
O=C(CC1CC2CCC1C2)N1CCN(S(=O)(=O)c2ccc(C(F)(F)F)cc2)CC1 (centres undefined) | -3.6 | -8% | nt | -14 | 3 | 3
COc1cccc2cc(C(=O)N3CCc4ccccc43)c(=O)oc12 | -2.5 | -8% | -8% | -5 | 5 | 2
CCCOc1ccc(C(=O)CCC(=O)OCC(=O)Nc2cccc(S(N)(=O)=O)c2)cc1 | -1.0 | 27%[15.4 µM] | -8% | -7 | 2 | -5
O=S1(=O)NC(CC2=CCCCC2)C2CCCCC2O1 (centres undefined) | 0.3 | 4% | 4% | -8 | 6 | -2
CC1C=CCC2C(=O)N(c3ccc(OC(=O)c4cccs4)cc3)C(=O)C12 (centres undefined) | -0.7 | -1% | 6% | 0 | -10 | -11
COc1ccc(CN2CC(C(N)=O)Oc3ccccc32)cc1F (centres undefined) | -0.9 | 3%[15.4 µM] | -33% | 1 | -17 | -15
CC(=O)c1cccc(NC(=O)N2CCCC2C(=O)NCCc2ccccc2)c1 (centres undefined) | -4.6 | -5% | 8% | -27 | 4 | 3
Cc1occc1C(=O)N1CCCC(Nc2ccc(F)cc2)C1 (centres undefined) | 0.3 | 3% | 8% | -3 | 4 | 6
Cc1c(CCC(=O)O)c(=O)oc2cc3oc4c(c3cc12)CCCC4 | 0.4 | -12%[15.4 µM] | ? | -8 | 4 | 1
OC1CCCCC1 | -3.5 | nt | 3% | 2 | 3 | 3
COc1ccc(Nc2nc(N)c(C(=O)c3ccc(F)cc3)s2)cc1 | -4.1 | ? | 10% | 10 | nt | -9
CCc1cccc2c(C(=O)COC(=O)c3ccc(O)cc3)c[nH]c12 | -0.7 | -14% | -14% | ? | 2 | -5
COC(=O)CCC(=O)OC1(C)C(=O)C2=COC(c3ccc(OC)cc3)=CC2=C(Br)C1=O (centres undefined) | 2.9 | ? | -10% | -9 | ? | -21
CCN(C(=O)Cn1cc(C(F)(F)F)ccc1=O)c1c(N)n(Cc2ccccc2)c(=O)[nH]c1=O | -1.1 | -8%[15.4 µM] | 2% | -12 | -11 | -1
O=C(Cc1ccccc1[N+](=O)[O-])Nc1ccc2c(c1)OCO2 | -1.2 | -27% | 1% | -6 | 0 | -3
Cc1ccc(C)c(Cn2cnc3c(nnn3-c3ccc(F)cc3)c2=O)c1 | 2.7 | 16% | 9% | -7 | -6 | -3
Cc1coc2cc3oc(=O)c(CC(=O)N4C[C@H]5C[C@@H](C4)c4cccc(=O)n4C5)c(C)c3cc12 | 3.9 | nt | -11% | -13 | -3 | -6
CCOc1ccc(S(=O)(=O)NCCC(=O)NCC(c2ccco2)N2CCCCC2)cc1 (centres undefined) | 6.6 | 19% | 13% | -3 | 1 | 5
CCc1nnc(NC(=O)/C=C/c2ccc(C)o2)s1 | 1.3 | -8% | -8% | -3 | -1 | 0
CC(=O)Oc1ccc2c(c1)OC(c1ccccc1)CC21CC(C)(C)NC(=O)N1 (centres undefined) | 4.8 | -10% | 18% | 14 | 5 | -1
CC1CCN(C(=O)CNS(=O)(=O)c2ccc(Br)s2)CC1 | -0.5 | -31%[inhibitor] | -13% | -4 | 0 | -3
COc1ccc(S(=O)(=O)N(CC(=O)NCC2CCCO2)Cc2ccccc2)cc1C (centres undefined) | -1.7 | -12% | -4% | -14 | -20 | -7
CCn1c(SCC(=O)N/N=C/c2ccccc2OCC(=O)O)nnc1-c1ccc(OC)cc1 | 1.6 | -1% | -1% | 6 | 0 | 4
CCOC(=O)C1CCCN(S(=O)(=O)Cc2ccccc2)C1 (centres undefined) | -1.1 | -11% | 8% | -25 | 6 | 6
OCCN(Cc1cccnc1)Cc1ccccn1 | -0.7 | -3% | 6% | -20 | 3 | -89*
CN(CC(=O)Nc1ccc([N+](=O)[O-])cc1Br)Cc1c(F)cccc1Cl | 2.2 | -21% | -23% | -2 | -23 | -11
CCOC(=O)c1c(C)[nH]c(C(=O)COC(=O)c2oc3ccccc3c2C)c1C | 0.8 | -28% | 12% | 6 | 2 | 2
CCOC(=O)c1c(C)[nH]c(C(=O)N(C)CC(=O)Nc2ccc(OCC)c(OCC)c2)c1C | -2.7 | -49%[inhibitor] | nt | -3 | 2 | -2
Cc1ccc(S(=O)(=O)C2(C(=O)NCc3ccc4c(c3)OCO4)CC2)cc1 | -9.7 | 3% | 10% | -3 | -4 | 8
CSc1ccc(Cn2c(C)c(C(=O)NCc3ccccc3C(F)(F)F)sc2=O)cc1 | -3.7 | nt | nt | -3 | 1 | -6
O=C(CN1C(=O)c2ccc([N+](=O)[O-])cc2C1=O)Nc1cc(S(=O)(=O)N2CCOCC2)ccc1Cl | 7.5 | 25% | 1% | 10 | 0 | 14
Cc1cccc(NC(=S)NC2CCCCC2)n1 | -1.2 | 3%[15.4 µM] | 0% | -11 | 0 | -5
O=S1(=O)CC(N2CCC(Cc3ccccc3)CC2)CN1C1CCCCC1 (centres undefined) | 1.6 | nt | nt | -10 | -4 | -7
Cc1cc(C(=O)NCC(c2ccco2)N2CCCC2)c2ccccc2n1 (centres undefined) | -0.2 | 5% | 10% | -2 | 2 | 4
S=C(NCCCn1ccnc1)NC1CCCCC1 | -3.2 | -4% | 16% | -8 | 10 | 20
S=C(NCc1ccccc1)C(=S)NCc1ccccc1 | -4.4 | 7% | -9% | -6 | ? | ?
Cc1ccccc1-c1noc(-c2ccc(Cl)cc2)n1 | 0.2 | 7% | 14% | 0 | -3 | 12
O=C(Nc1cccc([N+](=O)[O-])c1)c1ccc(-c2ccccc2)cc1 | 1.3 | -5%[15.4 µM] | -2% | -4 | 0 | 13

Following part
Structure | D2 ag | gsp agonist | gsp antag | D2 PAM | CtBP-E1A inh | Six1-Eya2 blk
Cc1cc2nc(C3CCN(CC4COc5ccccc5O4)CC3)[nH]c2cc1C (centres undefined) | 4.2 | -13% | -17% | -8 | -5 | -7
CCOc1ccc(-n2cc(C(=O)N3CCN(C)CC3)c3cc(OC)c(OC)cc3c2=O)cc1 | -1.7 | -28% | 4% | -7 | -2 | 0
CC1(C(=O)Nc2ccc3c(c2)OCCO3)CCN1Cc1ccc(-c2ccccn2)cc1 (centres undefined) | -3.1 | nt | nt | -1 | -3 | -4
COc1ccc(F)cc1COc1nc(C)nc2ccccc12 | -3.2 | -19%[15.4 µM] | -2% | -2 | 4 | 0
O=C(COC(=O)c1ccccc1O)Nc1ncc(Cl)cc1Cl | -5.7 | 2% | 0% | -3 | -5 | -18
COc1ccc(Oc2ccc(/C=C/C(=O)c3cccc(OC)c3)cc2[N+](=O)[O-])cc1 | -5.2 | 1% | -1% | -22 | 1 | -4
Cc1ccc(OCCCC(=O)N(C)CC(=O)Nc2c(C)cccc2C)cc1 | -0.3 | -103%[inhibitor] | nt | -12 | 0 | 5
COc1cccc(C(C)NC(=S)NCc2ccc(Cl)cc2)c1 (centres undefined) | -7.6 | -1%[15.4 µM] | 9% | -4 | 1 | 8
CCNc1c(NS(=O)(=O)c2ccc(Br)s2)c(=O)oc2ccccc12 | 4.3 | 6% | -8% | -2 | -2 | 1
COc1ccccc1N(CC(=O)NCCSCc1ccco1)S(=O)(=O)c1ccccc1 | 2.6 | 1%[15.4 µM] | -16% | 2 | -3 | -9
COc1ccc(N2CCOCC2)c(NC(=O)COc2cccc(C)c2)c1 | -4.5 | -41%[inhibitor] | -2% | 5 | 12 | 4

Assay outcomes (PubChem BioAssay)
